High-throughput results from PubChem BioAssay.
D2 potentiator – human D2 receptor positive allosteric modulation; 360,000 compounds, 0.23% hits; DiscoveRx D2 beta-arrestin cells, luminescence, 90 min; 100% = 57 uM dopamine signal; AID 624464; potentiation, % (test concentration not listed); P14416; active = potentiation of 50% or more; inconclusive = 30% to 50%; inactive = 30% or less;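 note: compound concentration not given in the record; tested on top of an EC20 dose of dopamine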
Target sequence (P14416 whole entry, looked up): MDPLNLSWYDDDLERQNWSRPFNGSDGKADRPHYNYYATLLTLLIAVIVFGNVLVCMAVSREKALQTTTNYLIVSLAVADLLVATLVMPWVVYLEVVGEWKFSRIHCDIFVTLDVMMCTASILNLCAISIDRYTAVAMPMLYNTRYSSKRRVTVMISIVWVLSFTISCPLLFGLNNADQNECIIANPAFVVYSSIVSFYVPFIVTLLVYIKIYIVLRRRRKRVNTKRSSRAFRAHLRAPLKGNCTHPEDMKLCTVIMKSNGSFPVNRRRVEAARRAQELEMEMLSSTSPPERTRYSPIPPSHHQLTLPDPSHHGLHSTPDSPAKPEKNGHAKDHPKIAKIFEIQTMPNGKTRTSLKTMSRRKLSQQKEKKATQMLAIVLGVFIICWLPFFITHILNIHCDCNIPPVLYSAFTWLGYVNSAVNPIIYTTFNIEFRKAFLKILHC
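PathHunter beta-arrestin assay in DiscoveRx D2 cells. Compounds were added with an EC20 of dopamine (50 nM final) for 90 min at 37 deg C. Luminescence was read 1 h after detection reagent, with 57 uM dopamine as the EC100 control.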
CtBP-E1A blk – blocks the CtBP interaction with E1A. activity change, % (concentration not given with the values). 340,000 compounds, 0.49% hits. AID 651724. AlphaScreen GST-E1A/His-CtBP binding, 1536-well; stronger effect = lower value; control for the full effect not named in the record; in the data active means activity change below about -65%; inconclusive means about -30% to -65%; inactive means above about -30%; note: % is set by controls: 0 for no effect and ±100 for the full control effect
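In 5 uL wells, 23 nL compound meets equimolar GST-E1A and His-CtBP (5X stock 125 nM each) for 2 h, 37 °C. Beads (5X, 50 ug/mL) then 1 h, 37 °C, dark.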
Six1-Eya2 blk – blocks human Six1 binding to Eya2; Q15475+O00167; AlphaScreen GST-Six1/His-Eya2 binding, biochemical; stronger effect = lower value; control for the full effect not named in the record; activity change, % (concentration not given with the values); 360,000 compounds, 0.56% hits; in the data active = activity change below about -65%; inconclusive = about -30% to -65%; inactive = above about -30%; note: % is set by controls: 0 for no effect and ±100 for the full control effect
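Six1/Eya2 binding was read as AlphaScreen signal after compounds were pinned into GST-Six1 plus His-tagged Eya2 (5X stock 250/500 nM) in pH 8.0 Tris/NaCl/TCEP buffer, beads added, then incubated 1 h, 37 C, dark.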
gsp agonist – activates gsp, the McCune-Albright syndrome mutation. gsp mutant cells, cAMP HTRF, 30 min; control for the full effect not named in the record. Potency, µM (doses to about 76.9 µM), without a hit: top-dose activation (cAMP increase), hits mostly activators. 340,000 compounds, 0.13% hits. AID 624287; active = well fitted activation curve with a large enough effect; inconclusive = small, poorly fitted or top-dose-only effect, or another doubt; inactive = no such curve, though single readings can be large or run the other way; cell line not stated here;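 note: phosphodiesterase inhibitor Ro 20-1724 added with compounds to block cAMP breakdown; potency is the fitted concentration of half-maximal effect; nearly all actives have a fitted effect of over 60% in size; about a fifth of the inactives were tested at one dose only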
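Cells stably selected in G418 were plated at 2000/well, grown 16-24 hr, then given compounds in DMSO with the PDE inhibitor […] (300 uM solution added) for 30 min at 37C; cAMP was read by HTRF.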
gsp antag – gsp mutant antagonism; gsp-mutant cells, cAMP HTRF, 30 min; control for the full effect not named in the record; Potency, µM (series often up to 76.9 µM), without a hit: at the highest dose activity change, negative = inhibition, hits mostly inhibitors; 340,000 compounds, 0.4% hits; AID 624288; active = falling curve of any shape with a large fitted effect; inconclusive = falling curve, mostly with a smaller effect; inactive = flat or rising curve; cell line not stated here;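 note: intracellular cAMP measured with PDE inhibitor Ro 20-1724 present during compound exposure; potency is the fitted concentration of half-maximal effect; % is set by controls: 0 for no effect and ±100 for the full control effect; nearly all actives have a fitted effect of over 65% in size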
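Cells, 2000/well, grown 16–24 h in DMEM 10% FBS with 0.5 mg/ml G418, then compounds plus […] (300 uM addition stock), 30 min at 37C. cAMP read by HTRF (cAMP-d2 and anti-cAMP antibody-K in lysis buffer) after 30 min RT.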
D2 agonist – human D2 receptor agonism in beta-arrestin assay; activation, % (concentration not given with the values); 360,000 compounds, 0.084% hits; DiscoveRx PathHunter D2 beta-arrestin, luminescence, 90 min; 100% = 57 uM dopamine signal; P14416; in the data active = activation above about 40%; inconclusive = about 15% to 40%; inactive = below about 15%; note: the text of the record calls up to 30% inactive
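Agonist mode: compounds alone added to overnight-plated D2 PathHunter cells for 90 min at 37 C, with 57 uM final dopamine (EC100) defining full response. Beta-arrestin recruitment detected by chemiluminescent reagent, read after 1 h at ambient temperature.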
Starred values were filed as active, the others as inactive; ? = inconclusive; . = no result given; [ ] = another dose, or the depositor's remark.

SMILES	D2 potentiator	CtBP-E1A blk	Six1-Eya2 blk	gsp agonist	gsp antag	D2 agonist
COCCNC(=O)C1(C)CCN(C(=O)c2cccnc2Oc2ccccc2)C1 (configuration not stated)	-11	6	8	.	.	-3.7
CCS(=O)(=O)Nc1ccc(-c2ccc(NS(=O)(=O)CC)c(OC)c2)cc1OC	7	-1	1	?	-7%	-1.5
CC(C)(C)OC(=O)NNC(=O)c1ccc(Cl)cc1	-7	-1	6	-3%	13%	-0.8
C=CCN1C(=O)C(CC(=O)Nc2ccccc2)SC1=Nc1c(C)n(C)n(-c2ccccc2)c1=O (configuration not stated)	-7	-1	4	-37%[inhibitor]	0%	-1.9
COc1ccc(CN(C)Cc2nc3scc(-c4ccccc4)c3c(=O)[nH]2)cc1OC	-5	0	1	?	-2%	-2.1
O=C(Nc1cc(Cl)ccc1N1CCOCC1)c1cccnc1Cl	-4	10	32	14%[15.4 µM]	-4%	2.5
O=C(/C=C/c1ccc2c(c1)OCO2)NCc1cn2cc(Cl)ccc2n1	-6	-2	-7	19%[15.4 µM]	0%	1.2
CC1CCN(CC(O)COc2ccc(OCC(O)CN3CCC(C)CC3)cc2)CC1 (configuration not stated)	-31	.	0	2%	13%	-2.7
COc1ccc([C@@H]2[C@@H]3C(=O)N(C(C)(C)C)C(=O)[C@@H]3[C@]3(CC(C)C)C(=O)N(c4ccccc4)C(=O)N23)cc1	-10	5	2	1%	3%	-3.4
COc1ccc(-c2nnn(Cc3nn[nH]n3)n2)cc1OC	-7	-1	-1	19%	12%	-5.2
Cc1ccc(C(=O)Nc2cccc(C(=O)N/N=C/c3ccccc3F)c2)cc1	-11	-11	-7	-4%[15.4 µM]	-9%	2.0
CC1CCN(C(=O)CN2C(=O)NC(c3ccccc3)(c3ccccc3)C2=O)CC1	-2	4	2	5%	3%	6.3
COc1ccc(NC(=O)c2cc([N+](=O)[O-])ccc2N2CCCC2)cc1	-8	13	-1	8%[15.4 µM]	-5%	-3.9
COc1ccccc1N1CCN(C(=O)c2cccc(S(=O)(=O)N3c4ccccc4CC3C)c2)CC1 (configuration not stated)	-15	-18	-16	11%	32µM*	1.8
CCc1ccc(C2c3[nH]c4ccccc4c3CCN2C(=O)CNC(N)=O)cc1 (configuration not stated)	-21	-17	-14	-8%[15.4 µM]	-2%	-3.4
Cc1ccc(N2C(=O)C(Cl)=C(NCc3ccccc3)C2=O)c(C)c1	-3	17	28	-19%	-27%	-2.5
CCN(CC)CCCNc1oc(-c2ccccc2[N+](=O)[O-])nc1C#N	0	.	-5	11%	0%	-4.4
O=C(CC1S/C(=N/N=C/c2c[nH]c3ccc(OCc4ccccc4)cc23)NC1=O)Nc1ccccc1 (configuration not stated)	-12	3	5	-5%	7%	0.6
O=C(CCN1CCN(c2ccc(Cl)cc2)CC1)Nc1nccs1	-14	-2	-1	-10%	0%	-2.8
Cc1ccc(C2CC(c3cccs3)n3nc(N)nc3N2)cc1 (configuration not stated)	-16	-10	1	-24%	-3%	-1.5
NS(=O)(=O)c1ccc(CCNC(=O)CCCCCn2c(=S)[nH]c3ccc(Br)cc3c2=O)cc1	13	4	0	?	0%	13
CC(C)(O)C#Cc1ccc(C(=O)N2CCN(c3ccccc3)CC2)cc1	-8	.	3	?	4%	6.1
O=C(O)CCC(=O)N1CCN(c2ncccc2C(F)(F)F)CC1	-15	11	9	18%	4%	0.1
O=C(CSc1nc2ccccc2s1)NCCOc1ccc(Cl)cc1	-17	3	-11	-1%	-10%	-3.7
CCc1nc2ccc(C(=O)NCCOc3ccc(OC)cc3)cn2c1N(C)C(=O)COc1ccccc1	-3	2	1	.	.	-4.2
CC(C)Cc1ccc(CN2CCCC(NC(=O)CCCN3CCCC3=O)C2)cc1 (configuration not stated)	-7	.	-3	8%	1%	4.7
COc1ncnc2c1oc1nc(CC(C)C)c3c(c12)CC(C)(C)OC3	1	-18	-9	-33%	7%	-3.2
C/C(=N\NC(=O)CC1N=C(Cc2ccccc2)NNC1=O)c1ccccc1 (configuration not stated)	-27	5	-3	-40%[inhibitor]	5%	-7.5
CCOC(=O)CSc1nc2ccc(N)cc2s1	0	4	0	-2%	-22%	5.9
O=S(=O)(c1ccccc1)c1nc(-c2ccccc2)oc1N1CCCCC1	-6	2	3	3%	6%	-2.7
CCN1CCN(c2oc(COc3ccc(-c4ccccc4)cc3)nc2C#N)CC1	-36	-19	?	0%	9%	-4.1
COc1ccc(CN2CCN(c3ncnc4scc(-c5ccc(F)cc5)c34)CC2)cc1	-13	-1	-5	-12%[15.4 µM]	-46%	2.6
O=C(c1ccccc1)c1ccc2nc(N3CCCCC3)c3nncn3c2c1	-5	-6	-16	-49%[inhibitor]	-26%	-0.3
CCN1CCN(CCCNC(=O)c2csc3c2CCCCC3)CC1	-12	0	-3	?	8%	-3.5
O=C(CN1C(=O)NC2(CCCc3ccccc32)C1=O)N1CCN(C(=O)c2ccco2)CC1 (configuration not stated)	-2	0	-6	?	10%	-1.8
Cc1ccc(NC(=O)c2cc(N3CCOCC3)nc3ccccc23)cc1	1	9	9	21%	1%	-2.3
CCN(CC)C(=O)c1cccc(-c2csc(C(C)(O)c3ccncc3)n2)c1 (configuration not stated)	-2	-3	1	.	.	6.3
Fc1cc(F)c2nc(Nc3nc4c(F)cccc4s3)sc2c1	-11	10	4	-17%	-11%	0.8
COc1cc2cc(C(=O)N3CCOCC3)cc(-c3ccc(C)cc3)c2cc1OC	-6	-16	-2	-2%	-23%	3.4
CC(=O)N/C(=C\c1ccc(F)cc1)C(=O)OCc1ccccc1	0	-13	-4	-28%[15.4 µM]	5%	-0.6
CCc1nnc(NC(=O)CSc2nnnn2-c2cccc(C(C)=O)c2)s1	-46	.	0	-5%	-12%	1.5
O=C(Nc1ccccc1)C1CC2CCCC(C1)C2=O (configuration not stated)	8	11	5	3%	-1%	1.9
O=c1[nH]c(=S)[nH]c2c1C(c1ccc(Br)cc1)c1c([nH]c(=S)[nH]c1=O)O2	-19	-19	?	1%[15.4 µM]	4%	-1.8
CC(=O)c1ccc(N2CC(C)(C)C2=O)cc1	-6	2	5	6%	8%	-0.5
O=C(O)c1cc(S(=O)(=O)NCC2CCCO2)ccc1Cl (configuration not stated)	-2	-28	4	-3%	7%	-2.7
CC1CCc2sc(C(=O)Nc3ccc(N4CCOCC4)cc3)cc2C1 (configuration not stated)	-1	-24	-25	-6%	-4%	-5.7
Cn1c(CSc2ncccn2)nnc1SCC(=O)N1CCCC1	-8	-16	18	28%	12%	3.2
OCC[C@@H]1C[C@@H](O)[C@H](O)[C@]2(OCc3ccccc32)O1	-12	9	8	-24%	8%	-1.2
CCOc1ccccc1CNC(=O)CCCc1cn(C)c2ccccc12	2	-1	-20	11%	-10%	-6.1
CCCc1cc(=O)n2nc(N3CCC(C(=O)NCc4ccc(C)o4)CC3)sc2n1	-7	-8	-11	-3%	?	0.6
New compounds follow
SMILES	D2 potentiator	CtBP-E1A blk	Six1-Eya2 blk	gsp agonist	gsp antag	D2 agonist
O=C(CSc1nncn1-c1ccccc1)Nc1ccc(N2CCOCC2)cc1	0	-5	-2	-8%	-3%	-1.6
Cc1ccc(N=Nc2c(C)[nH]n(C(N)=S)c2=O)cc1	-2	-10	17	-38%[15.4 µM]	9%	-12
COc1ccc(CCN2CC(C(=O)OCC(=O)NC(Cc3ccccc3)C(C)=O)CC2=O)cc1OC (configuration not stated)	1	.	-1	0%	-4%	-3.3
CC1Sc2ccc(C(=O)NCc3ccccn3)cc2NC1=O (configuration not stated)	-2	-15	-4	-55%[inhibitor]	10%	-5.8
O=C(OCC(=O)c1ccc[nH]1)c1ccccc1	3	12	0	-13%	14%	2.6
CC1(C)CC(NC2C3CC4CC(C3)CC2C4)CC(C)(C)N1 (configuration not stated)	-6	-3	10	5%[15.4 µM]	13%	-2.4
COC(=O)C1=C(C)N(C)C(=S)N(C)C1c1ccc(OC)cc1 (configuration not stated)	-6	-4	-3	5%[15.4 µM]	-11%	-2.3
CCN(Cc1ccccc1)c1ccccc1	-5	3	5	.	-10%	0.5
c1ccc2c(c1)CCc1c(-c3ccncc3)n[nH]c1-2	1	.	-8	-25%	1%	-0.6
c1ccc(-c2nc(-c3ccncc3)no2)cc1	0	2	12	5%	-6%	2.0
CCOC(=O)C1=C(C)N(CC(C)C)C(=O)/C1=C\c1ccc(OCC(=O)Nc2ccccc2)cc1	-1	0	-3	-29%	-8%	0.5
COc1cccc(CC(=O)OC(C)C(=O)Nc2ccc(Cl)cn2)c1 (configuration not stated)	-6	-3	9	-9%[15.4 µM]	-2%	-3.0
COc1ccccc1N1CCN(C2CCCN(C(=O)CCn3cncn3)C2)CC1 (configuration not stated)	-12	-3	9	-17%	6%	-2.8
COc1ccc(C(=O)Nc2cccc(/C=C(/CCC(=O)O)c3nc4ccccc4s3)c2)cc1	-2	-10	-8	?	-32%	-6.6
